Screening data: PubChem, several laboratories
PrP 5UTR inh = inhibition of PrP 5' UTR reporter expression. cell-based PrP 5' UTR mRNA reporter, plate reader. inhibition, % (test concentration not listed). 0.35% of 340,000 active;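 active means every replicate at 50% or more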;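 further: 0 = median of the neutral control wells; tested in H4 reporter cells; numbers are from one replicate; inactives centre near -14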
Mtb hypoxia inh = PubChem AID 1159583; M. tuberculosis hypoxia-regulated fluorescent reporter, fluorescence; fluorescence inhibition, % (test concentration not listed); 0.1% of 300,000 active;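 active means 35 to 45% if threefold the growth effect, above 45% if 1.5-fold the growth effect; inactive means the rest, general growth blockers included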;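 further: wells of about 50 µL received 100 nL stock; 0% = vehicle wells and 100% = reference inhibitor wells; whole bacteria with a GFP reporter of the hypoxia response; strong numbers were not always called active; many hits fall short of the cut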
RN4220 kill = growth inhibition of S. aureus RN4220, primary screen, OD600 | 16 h | inhibition, % (test concentration not listed) | 0.33% of 330,000 active;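 active means z-score of -3 or lower and OD600 up to 0.18 on both plates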;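 further: plate controls were untreated cells for no effect and reference antibiotic for full effect; stock transfer was 100 nL into about 80 µL; one replicate is shown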
Autofluor counter = flagged as autofluorescent in microsphere protease counterscreen. 3.1% of 360,000 active. compound autofluorescence counterscreen, microsphere flow cytometry; active compounds read high. AID 624483. fluorescence intensity (test concentration not listed);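 active means at least 3 SD above the mean of all compounds, about 16000 in these data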;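 further: 100 nL of 1 mM stock went into each well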
BJeLR lethal = MLPCN primary cell-based screen for lethality selective to Ras in HRASV12 cells | BJeLR (HRASV12) viability, CellTiter-Glo ATP luminescence, 48 h; reference of the scale not given here | inhibition, % (concentration not given with the values) | AID 1554, 2009 | 0.17% of 300,000 active;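 active means replicate mean above 50%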;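 further: 50 nL library stock added to about 25 µL; numbers are from one replicate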
Sa ugtP lethal = growth inhibition of ugtP-null S. aureus, primary screen, RN4220 ugtP deletion, OD600. 0.54% of 330,000 active. growth inhibition, % (no concentration beside the values). AID 1259309, 2017. 16 h; some inactives read as strong as hits;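 active means z-score under -3 and OD600 up to 0.15 on both plates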;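 further: plate controls were untreated wells for no effect and antibiotic for full effect; wells of about 80 µL received 100 nL stock; the first replicate is given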
Mtb hypoxia inh growth = further read-out of Mtb hypoxia inh, marked with its call; growth inhibition, %; measured here: M. tuberculosis growth (absorbance);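 0% = vehicle and 100% = reference antibiotic; read after six days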
Numbers without * were called inactive; nt = no result given.

SMILES	PrP 5UTR inh	Mtb hypoxia inh	Mtb hypoxia inh growth	RN4220 kill	Autofluor counter	BJeLR lethal	Sa ugtP lethal
COc1ccccc1Nc1ccc2c(O)cc(S(=O)(=O)O)cc2c1	8	9	5	8.0	2951	nt	5
CCOc1cc(C(c2c(C)[nH][nH]c2=O)c2c(C)[nH][nH]c2=O)cc(Br)c1OC	-11	13	7	4.5	3306	4	6
O=C(Cn1[nH]c(=O)c2ccccc2c1=O)Nc1ccc2c(c1)CCC2	-1	7	12	4.1	3653	-6	-8
O=[N+]([O-])c1ccccc1S(=O)(=O)N1CCN(c2ccccc2)CC1	-15	-1	6	2.5	3747	2	4
CC(Cl)C(=O)c1c[nH]c2ccccc12 (stereo not drawn)	-34	3	-3	2.6	3494	-10	10
CN(c1ccc(OCC(=O)Nc2ccc(S(N)(=O)=O)cc2)cc1)S(=O)(=O)c1ccc(F)cc1	-24	10	11	4.8	4854	nt	2
COc1ccc(C(=O)NCC(=O)OCC(=O)NC2CCCC2)cc1	-11	11	-6	0.9	2742	3	5
CCn1c(C(O)c2cc(OC)ccc2OC)nc2ccccc21 (stereo not drawn)	-28	17	4	4.0	4481	7	7
O=C(Nc1ccccc1)Nc1ccc2c(c1)CCC2	-61	5	2	-2.3	6342	5	0
CC1C(=O)NN=C1C(=O)N/N=C\c1ccc(O)cc1O (stereo not drawn)	-5	nt	nt	nt	10291	-6	nt
O=C(CN1CCN(Cc2cccc(Cl)c2)C1=O)NCc1ccccn1	-23	-1	1	9.5	4330	-8	-4
CC1=CCC2C(=O)N(c3ccc(S(N)(=O)=O)cc3)C(=O)C2C1 (stereo not drawn)	7	11	1	2.9	4513	0	8
O=C(CN=C1NS(=O)(=O)c2ccccc21)OCC(=O)c1cc(F)ccc1F	-22	1	4	5.0	4718	1	4
O=C(O)C1CCN(c2ccc([N+](=O)[O-])cc2[N+](=O)[O-])CC1	-21	-5	4	3.3	5769	5	-7
Cc1ccc(/C=C2\SC(=S)N(CCCC(=O)Nc3nccs3)C2=O)cc1	-20	nt	nt	nt	2630	-4	nt
COCCn1c(SCC(=O)Nc2sccc2C(N)=O)nnc1-c1ccncc1	-27	17	2	3.3	4997	nt	4
CON=C(c1nonc1N)N1CCN(c2ccc([N+](=O)[O-])cc2Cl)CC1	nt	10	7	9.9	nt	nt	-24
N#CC12CNCC1CN=N2 (stereo not drawn)	-13	nt	nt	nt	4086	3	nt
CC(C)=CC(=O)OCC(=O)Nc1ccc(F)cc1Cl	-10	3	8	24	2627	-10	16
Clc1ccc(Cl)c(OCCCCN2CCCCC2)c1	-9	-2	8	-0.4	4042	1	4
COC(=O)Cc1c(C)nc2nc(-c3ccc(OC)cc3)[nH]n2c1=O	-30	nt	nt	nt	22942*	5	nt
CCCC(NC(=O)CNC(=O)C(C)(C)C)C(=O)O (stereo not drawn)	-14	5	3	0.3	3129	9	5
Cc1ccc2c(c1)C(c1ccccc1)N(C(=O)c1ccc(F)cc1)CC(=O)N2 (stereo not drawn)	-11	11	3	0.5	3769	-5	16
COc1ccccc1/C=C/C=N/Nc1cccc(C(=O)O)c1	-96	nt	nt	nt	5131	-11	nt
CCn1nccc1C(=O)Nc1ccc(Cl)c(Cl)c1	-25	-1	10	-2.2	4245	-6	-21
SMILES	PrP 5UTR inh	Mtb hypoxia inh	Mtb hypoxia inh growth	RN4220 kill	Autofluor counter	BJeLR lethal	Sa ugtP lethal
CCOC(=O)c1sc(=S)n(C)c1NC(=O)c1ccccc1C	-17	-14	-2	5.6	8889	-8	2
CC(=O)c1c(C)oc2ccc(NS(=O)(=O)c3ccc(F)cc3C)cc12	-2	6	2	4.7	4315	-4	10
CC(C)(C)c1ccc(C(=O)NC(=S)N2CCCC2)cc1	-34	-6	-7	3.1	nt	2	6
Cc1ccc(OCC(=O)N2CCN(C)CC2)c(Br)c1	-25	nt	nt	-0.7	2820	-2	1
O=C(O)C1CCN(C(=O)c2cc(F)cc3c2OCOC3)CC1	nt	2	11	5.0	nt	-16	11
COc1ccc(OC)c(Cc2nnc(CCC(=O)N3CCC(N4CCCCC4)CC3)o2)c1	-37	-4	-5	4.5	6730	5	7
COc1ccccc1CN1CCC(n2nccc2NC(=O)CCOc2ccccc2)CC1	-3	-4	0	3.1	6314	0	11
O=C1C2CC=C(Cl)CC2C(=O)N1CCc1ccccc1 (stereo not drawn)	-27	3	1	5.9	11098	-7	10
Cc1cccc(N=Cc2c(O)cc(C)oc2=O)n1	nt	-2	1	-16	nt	nt	-7
O=C(NCc1ccc(F)cc1F)c1cc(COc2c(F)cccc2F)on1	-15	8	3	14	4876	-3	-2
COc1cc2[nH]c(=S)n(N(C(C)=O)C(C)=O)c(=O)c2cc1OC	-12	6	2	4.4	22631*	6	2
COCCn1c(C)cc(C(=O)CSc2nnc3ccccn23)c1C	11	1	3	0.3	6154	11	1
O=C(NC(NC(=S)Nc1cccc(Cl)c1)C(Cl)(Cl)Cl)OCc1ccccc1 (stereo not drawn)	-16	-3	8	90*	10289	3	96*
CC1CN(C(C)CO)C(=O)c2cc(NC(=O)CCCCCC(=O)Nc3ccccc3N)ccc2OC1CN(C)Cc1ccccc1 (stereo not drawn)	nt	-4	10	3.0	nt	nt	0
O=C(NCc1ccccc1F)C1CCCN1C(=O)NC1CCCCC1 (stereo not drawn)	-11	9	17	5.6	3827	3	1
Cc1ccc2c(c1)N(CC(=O)N1CCc3ccccc3C1)C(=O)CO2	-10	5	6	3.7	21837*	-7	8
O=C(COc1ccc(Cl)cc1)NCC(=O)N1CCC2(CC1)NCCc1[nH]cnc12	-24	2	9	2.7	5071	-5	2
COc1cccc(NC(=O)[C@H](C)NC(=O)C2CCN(S(=O)(=O)c3ccc(C)cc3)CC2)c1	-21	9	6	1.5	4931	5	6
C/C(=N\NC(=O)c1cc(Br)ccc1O)c1ccccn1	1	nt	nt	nt	6234	11	nt
Cc1cc(NC(=O)C2CCCN2C(=O)Nc2cccc(Cl)c2)ccc1-n1cnnn1 (stereo not drawn)	-12	8	-2	7.3	3365	-5	3
Cc1cccc(Nc2ncnc(N)c2[N+](=O)[O-])n1	-21	0	8	1.1	4576	-1	5
O=C(CCS(=O)(=O)c1ccc(Cl)cc1)Nc1ccc(F)cc1	0	-3	-3	1.1	3879	-2	5
C/C(=N\NC(=O)c1ccc(C)cc1C)c1ccc2c(c1)OCO2	-12	nt	nt	nt	2200	2	nt
O=C(O)COc1ccc(/C=N/n2c(COc3ccccc3)nc3ccccc3c2=O)cc1	-10	nt	nt	nt	2153	5	nt
COc1ccccc1CNC(=O)C1CCCN1S(=O)(=O)c1cccc2cccnc12 (stereo not drawn)	-11	nt	nt	1.5	3733	3	7

Reprinted at random: 6 entries already listed.
SMILES	PrP 5UTR inh	Mtb hypoxia inh	Mtb hypoxia inh growth	RN4220 kill	Autofluor counter	BJeLR lethal	Sa ugtP lethal
O=C(NCc1ccccc1F)C1CCCN1C(=O)NC1CCCCC1 (stereo not drawn)	-11	9	17	5.6	3827	3	1
O=C(COc1ccc(Cl)cc1)NCC(=O)N1CCC2(CC1)NCCc1[nH]cnc12	-24	2	9	2.7	5071	-5	2
COc1ccccc1CN1CCC(n2nccc2NC(=O)CCOc2ccccc2)CC1	-3	-4	0	3.1	6314	0	11
CCOC(=O)c1sc(=S)n(C)c1NC(=O)c1ccccc1C	-17	-14	-2	5.6	8889	-8	2
Cc1ccc(OCC(=O)N2CCN(C)CC2)c(Br)c1	-25	nt	nt	-0.7	2820	-2	1
COc1cc2[nH]c(=S)n(N(C(C)=O)C(C)=O)c(=O)c2cc1OC	-12	6	2	4.4	22631*	6	2

Next section
SMILES	PrP 5UTR inh	Mtb hypoxia inh	Mtb hypoxia inh growth	RN4220 kill	Autofluor counter	BJeLR lethal	Sa ugtP lethal
O=[N+]([O-])c1ccc(O)c(/C=N/Nc2nc3ccccc3[nH]2)c1	35	nt	nt	nt	1988	26	nt
CCCCCCCOc1ccc(C2CC(=O)N(C)C2=O)cc1 (stereo not drawn)	6	10	7	8.0	nt	7	44
COc1ccc(OC)c(N2Cc3ccccc3C2)c1	-22	2	11	5.8	8496	-10	-6
N#Cc1ccc(-c2csc(NC3=NCCCCC3)n2)cc1	-32	nt	nt	-5.0	2000	7	-7
Cc1cc(-c2nnc(SCC(=O)Nc3nccs3)o2)no1	-3	17	-4	1.8	3399	-11	4
CC1=CCC2C(=O)N(c3cccc(C(=O)Nc4ccc(Cl)cc4)c3)C(=O)C2C1 (stereo not drawn)	-6	11	-4	1.8	5524	-2	12
CC(=O)CCSc1ncnc2sc(-c3ccccc3)cc12	-111	0	6	-1.7	5587	4	-7
CCCNS(=O)(=O)c1ccc(CCC(=O)N2CCC(C)CC2)cc1	5	8	4	-1.3	3796	-7	-2
CCN(CC)S(=O)(=O)c1ccc(C(=O)NCC(=O)NN=Cc2ccccc2OC)cc1	nt	7	-2	1.9	nt	nt	5
COc1cc(/C=C(\C#N)c2nc3ccccc3[nH]2)ccc1Oc1ccc([N+](=O)[O-])cn1	0	-3	9	-7.0	9074	9	-22
Cc1ccc(NC(=O)CN(C)C(=O)c2ccccn2)cc1	-14	5	5	2.7	5463	nt	4
NC(=S)NN=Cc1ccc(-c2ccc(S(=O)(=O)Nc3ncccn3)cc2)o1	-2	7	13	7.6	3879	nt	-3
COc1ccc(C2=NO[C@H]3C[C@](C(=O)NC(C)C)(S(=O)(=O)c4ccccc4)C[C@@H]23)cc1	-19	nt	nt	nt	3390	-9	nt
Cc1ccc(/C=C/C(=O)NCc2cccs2)c(C)c1	-21	18	24	5.5	4547	-3	2
NC(=O)Cc1c[nH]c2cccc(O)c12	-14	8	3	0.6	8068	-5	-2
COC(CNC(=O)CCc1c(C)nc2c(-c3ccc(F)cc3)c(C)nn2c1C)OC	-7	0	0	-0.8	4237	-2	2
CCCCSCCCNC(=O)Nc1ccc(C)c(C)c1	-9	-1	0	1.4	3310	-13	4
COc1ccc(C(=O)NNC(=O)c2ccncc2)cc1[N+](=O)[O-]	-19	2	-4	1.3	3023	-6	0
CCC(=O)Nc1ccc(S(=O)(=O)N2CCc3ccccc3C2)cc1	-10	5	4	8.9	4226	1	13
FC(F)(F)c1nc2ccccc2n2c(-c3ccc(Cl)cc3Cl)nnc12	-11	nt	nt	-0.3	2133	5	14
COc1ccc(/C=N/Nc2ccc([N+](=O)[O-])cc2S(=O)(=O)N2CCN(C)CC2)cc1	31	nt	nt	nt	10436	4	nt
C/C(=N\N1CCN(C)CC1)c1ccc(OC(F)F)cc1	-36	nt	nt	nt	4523	3	nt
O=C(CS(=O)(=O)c1cn(Cc2cccc(F)c2)c2ccccc12)N1CCCCC1	-24	9	6	0.9	10138	3	-2
O=C(COC(=O)COc1cc(Cl)c(Cl)cc1Cl)NC1CC1	-37	12	8	1.9	2837	nt	-3
Cc1cc(NC(=O)CCC(=O)N(c2ccccc2)C(C(=O)NC2CCCC2)c2ccccc2C)no1 (stereo not drawn)	-10	17	11	4.0	5403	-1	7
SMILES	PrP 5UTR inh	Mtb hypoxia inh	Mtb hypoxia inh growth	RN4220 kill	Autofluor counter	BJeLR lethal	Sa ugtP lethal
O=S(=O)(CCc1ccncc1)C1Cc2cccc3cccc1c23 (stereo not drawn)	-9	3	-4	6.4	4032	1	5
CC(=O)NCCc1ccc(S(=O)(=O)Nc2ccc3c(c2)OCCO3)cc1	-25	13	3	0.3	5494	3	4
CCOC(=O)N1CCN(CC(O)COCC2=CCC3CC2C3(C)C)CC1 (stereo not drawn)	-4	nt	nt	2.8	4593	3	-2
CCNc1nc2[nH]c(=O)c3c(c2s1)OC(N)=C(C#N)C3c1cccs1 (stereo not drawn)	-19	nt	nt	nt	2121	5	nt
Cc1cc(C)cc(-n2c(C)cc(/C=N/NC(=O)c3ccncc3)c2C)c1	-28	nt	nt	nt	3402	4	nt
O=C(O)Cc1ccc(NC(=O)c2cnccn2)cc1	-19	7	-1	1.7	3821	1	4
O=C(c1cc(Cl)ccc1Cl)N1CCN(Cc2ccccc2)CC1	-16	8	3	1.3	3461	-1	14
Cc1ccc(C(=O)Nc2ccc(CC(=O)O)cc2)o1	-21	1	14	6.2	18362*	-3	-1
CCCCn1c(Cn2nc(C(=O)O)c3ccccc3c2=O)nc2cc(S(N)(=O)=O)ccc21	-1	-4	-7	2.3	2865	-9	15

Copied from the list.
O=C(O)Cc1ccc(NC(=O)c2cnccn2)cc1 in PrP 5UTR inh → -19
Cc1ccc(C(=O)Nc2ccc(CC(=O)O)cc2)o1 in Mtb hypoxia inh growth → 14
